VACV mCherry inh = vaccinia inhibition (mCherry reporter); 0.63% of 310,000 active; AID 720579; Potency, µM (titrated, usually from 36.5 µM), for inactives: top-dose activity change, negative = inhibition, actives largely listed as inhibitors; Vaccinia virus mCherry reporter infection, fluorescence; about a quarter of the inactives have no number; active = well fitted inhibition curve with a large enough effect; inconclusive = small, poorly fitted or top-dose-only effect; inactive = no such curve, though single readings can be large or run the other way; tested in A549 cells; note: nearly all actives have a fitted effect of over 35% in size; inactives centre near -10
VACV Venus inh = vaccinia inhibition (Venus reporter); Vaccinia virus Venus reporter expression, fluorescence; Potency, µM (titrated, usually from 36.5 µM), for inactives: at the top dose activity change, negative = inhibition, actives largely listed as inhibitors; 0.46% of 330,000 active; AID 720580; active means well fitted inhibition curve with a large enough effect; inconclusive means small, poorly fitted or top-dose-only effect; inactive means no such curve, though single readings can be large or run the other way; tested in A549 cells; note: nearly all actives have a fitted effect of over 30% in size; inactives centre near -10
Active calls of the source: *; i = inactive; ? = inconclusive; · = not tested or not shown; & = joins results of further samples; [ ] = another dose, or the depositor's remark. % is set by controls: 0 for no effect and ±100 for the full control effect; potency is the fitted concentration of half-maximal effect. This is a random part of the collection. About 0.86% of those tested had a hit in this group.

SMILES | VACV mCherry inh | VACV Venus inh
CN(C)CCNC(=O)c1cccc(-c2cnc3c(NC=O)cc(-c4ccc(C(=O)N5CCOCC5)cc4)cn23)c1 | 53%[activator] | 4%
O=S(=O)(/N=C(/Nc1cc(N2CCOCC2)ncn1)c1ccccc1)c1ccccc1 | -13% | -9%
COc1cc2c(NC3CCN(C)CC3)nc(N3CCCCC3)nc2cc1OCCOCCN(C)C | 10µM* | 13µM*
Cc1ccc(NCC2(N=Cc3ccccc3)OC(CO)C(O)C2O)cc1 (stereo not given) | -11% | -5%
COc1ccc2nc3n(c(=O)c2c1)-c1ncccc1C(=O)NC3C (stereo not given) | -24% | -7%
O=C(O)c1c[nH]c2cc(C(F)(F)F)ccc2c1=O | -6%[1.46 µM] | -7%
COc1ccc2cc(CCNC(=O)c3ccco3)c(=O)[nH]c2c1 | -21% | -13%
COc1ccc(C(=O)NC2CCN(CC(=O)Nc3c(C)cccc3C)CC2)cc1OC | 0% | -13%
ClCC(Br)CBr (stereo not given) | -13% | -7%
CCOC(=O)C1=C(C)Nc2ccccc2N=C1NC(=O)/C=C/c1ccc(OC)cc1OC | i | -8%
COc1ccc(C(=O)COC(=O)C2COc3ccccc3O2)c(OC)c1 (stereo not given) | i | -6%
O=C(OCc1nnc(-c2ccccc2)o1)c1cn(-c2ccccc2)nc1-c1ccccc1 | · | -16%

One compound at a time (already shown). Order of values: VACV mCherry inh | VACV Venus inh
Profile of COc1cc2c(NC3CCN(C)CC3)nc(N3CCCCC3)nc2cc1OCCOCCN(C)C : 10µM* | 13µM*
Profile of CN(C)CCNC(=O)c1cccc(-c2cnc3c(NC=O)cc(-c4ccc(C(=O)N5CCOCC5)cc4)cn23)c1 : 53%[activator] | 4%
Profile of COc1ccc(C(=O)COC(=O)C2COc3ccccc3O2)c(OC)c1 (stereo not given) : i | -6%
Profile of COc1ccc(C(=O)NC2CCN(CC(=O)Nc3c(C)cccc3C)CC2)cc1OC : 0% | -13%
Profile of O=C(OCc1nnc(-c2ccccc2)o1)c1cn(-c2ccccc2)nc1-c1ccccc1 : · | -16%

Further structures:
SMILES | VACV mCherry inh | VACV Venus inh
COC(=O)C1=CO[C@H](C)[C@H]2CN3CC[C@@]4(C(=O)Nc5ccccc54)[C@@H]3C[C@H]12 | 6% | -5%
CCOC(=O)c1ccccc1NC(=O)CSc1nc2cn(CC)nc2c(=O)n1Cc1ccc(Cl)cc1 | -15% | -11%
O=C(c1cc(-c2ccccc2O)on1)N1CCCCCC1 | -7% | -6%
CS/C(=N\NC(N)=O)c1ccccc1 | -8% | 8%
Cc1c(C(=O)NCc2ccc(C(F)(F)F)cc2)sc(=O)n1Cc1cccc(F)c1 | i | -11%
Cc1ccc(C(C(=O)NCC2CCCO2)N(C(=O)c2snc(C(N)=O)c2N)c2ccc(C)c(C)c2)o1 (stereo not given) | -12% | -7%
O=C(N/C(=C/c1cn(-c2ccccc2)nc1-c1ccccc1)C(=O)N1CCOCC1)c1ccc(Cl)cc1Cl | -12% | -20%
Cc1cc(C)n(CC(=O)Nc2ccc3c(c2)OCO3)c(=O)c1C#N | -13% | -10%
COc1ccc(C(=O)/C(C#N)=N/Nc2ccc([N+](=O)[O-])cc2)cc1 | ? | ?
CN(C)C(=O)c1ccc(NC(=O)c2ccccc2SCC(=O)N2CCCC2)cc1 | -2% | -12%
C=CCn1c(SCc2cc(=O)n3ccsc3n2)nc2sc(C)c(C)c2c1=O | i | -9%
CCOc1ccccc1C(=O)Nc1nnc(C(C)C)s1 | -8% | -29%
C=C[C@@H]1c2cc(C)ccc2N(S(=O)(=O)c2ccc(C)cc2)[C@H](c2ccccc2)C1(C#N)S(=O)(=O)c1ccccc1 (stereo not given in full) | -12%&-13% | -8%&-12%
CCOc1cccc(C(=O)Nc2cc(C)c(O)c(-c3nc4ncccc4o3)c2)c1 | -23% | -23%
CCOC(=O)c1nnn(CC(=O)Nc2cc(C)cc(C)c2)c1C(=O)OCC | -6% | 1%
O=S(=O)(Nc1ccccc1Cl)c1ccc(F)cc1 | -2% | -4%
COC(=O)c1ccccc1NC(=O)c1cnn(-c2ccc(F)cc2)c1-n1cccc1 | 1% | -3%
O=C(c1cccc([N+](=O)[O-])c1)c1ccc2c(c1)OCCOCCOCCOCCO2 | -18% | -4%
CCn1c(CCn2c3ccccc3c3ccccc32)n[nH]c1=S | i | -16%

Reformatted with two lines to a compound: 6 of the compounds above
Results follow in this order: VACV mCherry inh, VACV Venus inh
- C=C[C@@H]1c2cc(C)ccc2N(S(=O)(=O)c2ccc(C)cc2)[C@H](c2ccccc2)C1(C#N)S(=O)(=O)c1ccccc1 (stereo not given in full)
  -12%&-13%, -8%&-12%
- CCOc1cccc(C(=O)Nc2cc(C)c(O)c(-c3nc4ncccc4o3)c2)c1
  -23%, -23%
- CCOC(=O)c1nnn(CC(=O)Nc2cc(C)cc(C)c2)c1C(=O)OCC
  -6%, 1%
- O=S(=O)(Nc1ccccc1Cl)c1ccc(F)cc1
  -2%, -4%
- COC(=O)c1ccccc1NC(=O)c1cnn(-c2ccc(F)cc2)c1-n1cccc1
  1%, -3%
- O=C(c1cccc([N+](=O)[O-])c1)c1ccc2c(c1)OCCOCCOCCOCCO2
  -18%, -4%
